From PubChem BioAssay
HSV replic up: enhancers of HSV replication in host cells, fold increase, host cell viability; 220,000 tested, 0.005% active; maximum fold increase; HSV replication augmentation in cells;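 active = peak rise of 1.5-fold or more in the series; tested in PC3 cells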;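 also: first round at 10 µM; read as green reporter fluorescence; hits show the peak of a series up to 25 µM; 1 = signal of infected wells without compound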
PKD1 kinase inh: inhibitors of human PKD1 kinase, biochemical, fluorescence polarization | Serine/threonine-protein kinase D1 (Homo sapiens), Q15139 | PKD1 kinase fluorescence polarization assay | inhibition, %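 (about 10 µM by stock and volumes)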 | 200,000 tested, 0.056% active;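 active = inhibition of 50% or more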;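 also: controls were vehicle for no effect and a reference inhibitor for full effect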
RGS16-Gao HTS: modulators of RGS16 binding to Galphao, primary screen, biochemical, human proteins, multiplexed bead flow cytometry | 220,000 tested, 0.38% active | AID 1441, 2008 | Regulator of G-protein signaling 16 (Homo sapiens) + Guanine nucleotide-binding protein … | bead-based flow cytometry RGS16-Galphao binding, fluorescence; actives lie on both sides | binding response (% of control), % at 10 µM;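 active = below 25% or above 175%, edge rows of some plates excepted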;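 also: Galphao activated by GDP with aluminum fluoride before binding; 100% = wells without compound and 0% = beads without RGS; some results beyond the cut were filed as inactive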
Target sequence (O15492 whole entry, looked up): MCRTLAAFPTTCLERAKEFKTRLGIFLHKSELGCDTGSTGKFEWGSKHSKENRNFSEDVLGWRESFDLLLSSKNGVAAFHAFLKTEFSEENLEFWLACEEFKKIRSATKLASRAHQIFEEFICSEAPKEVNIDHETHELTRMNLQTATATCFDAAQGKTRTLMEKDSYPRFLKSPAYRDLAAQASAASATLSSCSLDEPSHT
Target sequence (P09471 whole entry, looked up): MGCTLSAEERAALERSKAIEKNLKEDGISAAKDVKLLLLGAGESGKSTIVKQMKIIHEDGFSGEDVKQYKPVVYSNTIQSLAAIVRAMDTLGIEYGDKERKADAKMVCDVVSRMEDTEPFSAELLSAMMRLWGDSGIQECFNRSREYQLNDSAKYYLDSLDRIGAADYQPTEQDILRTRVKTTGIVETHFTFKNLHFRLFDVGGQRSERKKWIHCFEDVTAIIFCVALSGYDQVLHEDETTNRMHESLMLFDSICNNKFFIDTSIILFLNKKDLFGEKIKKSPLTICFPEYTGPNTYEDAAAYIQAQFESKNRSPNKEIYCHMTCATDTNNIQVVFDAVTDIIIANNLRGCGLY
GALR2 agonist: GALR2 receptor agonists, primary screen, cell-based; GALR2-expressing cells, agonist activation read-out; 140,000 tested, 0.48% active; activation, %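 (tested at 5 µM)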; AID 803, 2007; Galanin receptor type 2 (Homo sapiens), O43603;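 active = above mean plus 3 SD of all compounds, about 5% in these data, not always enough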;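 also: 0% = vehicle buffer wells and 100% = reference agonist at full effect; tested in CHO reporter cells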
Target sequence (O43603 whole entry, looked up): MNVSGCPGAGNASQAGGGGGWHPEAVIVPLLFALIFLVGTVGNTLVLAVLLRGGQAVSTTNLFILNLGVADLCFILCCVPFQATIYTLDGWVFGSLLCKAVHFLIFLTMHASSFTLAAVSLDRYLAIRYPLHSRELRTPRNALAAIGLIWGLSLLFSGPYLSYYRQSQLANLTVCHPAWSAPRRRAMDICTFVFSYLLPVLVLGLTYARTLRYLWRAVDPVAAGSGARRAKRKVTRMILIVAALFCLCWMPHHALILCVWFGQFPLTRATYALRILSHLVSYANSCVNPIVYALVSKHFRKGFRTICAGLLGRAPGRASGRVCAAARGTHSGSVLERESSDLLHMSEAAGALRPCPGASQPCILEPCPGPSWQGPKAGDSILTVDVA
INS promoter inh: inhibitors of insulin promoter-driven GFP, primary screen, imaging, TRM-6 cells (human fetal islet line), eGFP reporter, cell count; reporter expression induced with tamoxifen; inhibition, % at 2 µM; 130,000 tested, 0.9% active; AID 1273, 2008;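 active = inhibition above the mean plus 3 SD, with well images judged a real hit on visual review, cut at about 60% in these data, passing the limit was not always enough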
INS promoter inh cell count: further read-out of INS promoter inh, marked with its call; normalized cell count, %; measured here: cell count, toxicity; reference of the scale not given here;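 cells exposed to compound for 48 h; stained nuclei by imaging scaled within each plate; lower means fewer cells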
HSV replic up primary fold: also measured in HSV replic up; calls as there; fold increase; compound at 10 µM; measured here: primary screen fold increase 10 uM; tested in PC3 cells;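 GFP signal in the first replicate; 1 = infected wells without compound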
Starred values were filed as active, the others as inactive; i = inactive; / = not tested or not shown.

SMILES,HSV replic up,HSV replic up primary fold,PKD1 kinase inh,RGS16-Gao HTS,GALR2 agonist,INS promoter inh,INS promoter inh cell count
CCc1nc(NC(C)(C)C)c2cnn(-c3ccccc3)c2n1,i,0.93,/,107,/,/,/
O=C(O)c1ccc(N=c2oc3cc(O)ccc3cc2C(=O)NCc2ccccc2)cc1,i,1.3,9,101,/,/,/
CC(C)(C)C(=O)Cn1c(=O)n(CC2CCCO2)c(=O)c2ccccc21 (configuration not stated),i,1,2,117,-0.9,-17,105
O=C(COc1ccc2ccc(=O)oc2c1)c1ccccc1,i,0.98,/,99,/,/,/
O=C(N/N=C/c1ccc(Br)o1)c1cncc(Br)c1,i,0.72,-3,90,0.2,25,104
Cc1ccc(NC(=O)Nc2ccc(S(N)(=O)=O)cc2)cc1,i,0.98,1,98,/,/,/
COc1ccc(Br)cc1CNC(=O)Nc1cccs1,i,1.1,4,-4,-1.6,-40,76
CCN(CC)S(=O)(=O)c1ccc2c(c1)nc(CCC(=O)OCc1c(C)noc1C)n2C,i,0.94,-5,99,0.3,/,/
CN(C)Cc1c(O)ccc2[nH]cnc12,i,1.1,-4,101,-1.0,/,/
CC(C)(C)NC(=O)C(c1ccccc1)N(C(=O)c1csnn1)C1CC1 (configuration not stated),i,1,3,105,-2.8,36,92
CCOC(=O)N/N=C/c1c[nH]c2ccccc12,i,0.99,4,95,/,/,/
O=C(N/N=C1\CC2CC=CC12)c1ccc(Br)cc1 (configuration not stated),i,0.94,11,103,/,10,184
COc1cc(/C=N/O)cc(Br)c1OCc1cccc(Cl)c1,i,0.99,-12,105,-2.3,33,123
COc1ccc(CN2CCSCC2)cc1O,i,0.86,-9,103,-2.1,23,110
CCOC(=O)c1c(C)[nH]c(C)c1C(=O)COC(=O)[C@@H](NC(=O)c1ccccc1OCC)C(C)C,i,0.9,1,102,0.1,-12,108
Cc1ccc(C)c(NC(=O)c2ncn[nH]2)c1,i,0.83,-1,119,-1.7,14,128
O=C(O/N=C/c1ccc2c(c1)OCO2)c1ccc([N+](=O)[O-])cc1,i,0.96,2,109,/,9,167
COCc1[nH][nH]c(=O)c1C=Nc1ccc(Cl)cc1,i,1,0,97,-1.1,-3,79
O=c1c(-c2ccc(Oc3ccccc3)cc2)[n+]([O-])c2ccccc2n1OCc1ccccn1,i,1,0,101,-0.9,41,71
N#CC1(c2c(O)nc3n(c2=O)CCCS3)CCCCC1,i,0.95,-2,93,-1.9,/,/
Cc1ccc(N(C)C(=O)C2CCN(S(=O)(=O)c3ccc4c(c3)oc(=O)n4C)CC2)cc1,i,0.94,5,105,-1.7,/,/
CCc1[nH]nc2c1C1(CCN(C(=O)OCc3ccccc3)CC1)C(C#N)=C(N)O2,i,0.98,-1,103,-2.2,63,118
Cc1nnc(NC(=O)CSc2ncnc3c2cnn3-c2ccccc2C)s1,i,0.79,-15,95,-2.5,-147,134
Cc1onc(-c2c(F)cccc2Cl)c1C(=O)NC(=S)Nc1c(C)n(C)n(-c2ccccc2)c1=O,i,0.99,-9,98,/,/,/
Cc1ccc(CC2CC(=O)N(Cc3ccco3)C2=O)cc1 (configuration not stated),i,1,1,131,-1.6,21,136
O=C(C[n+]1ccccc1)N/N=C/c1ccccc1F,i,0.95,6,115,/,11,148
COC(C(=O)Nc1cc([N+](=O)[O-])ccc1C)c1ccccc1 (configuration not stated),i,0.93,-3,95,/,/,/
O=C1OC(Cc2ccncc2)C(O)=C1C1=NCCCN1 (configuration not stated),i,1.1,-2,111,-1.6,0,84
O=c1oc2ccc([N+](=O)[O-])cc2c(N2CCOCC2)c1[N+](=O)[O-],i,0.99,-7,108,/,7,113
CCOC(=O)CCc1c(C)c2ccc(OCC(=O)N(CC)CC)c(C)c2oc1=O,i,0.83,-7,102,-1.8,0,49

Some of the entries so far, with values under each structure:
Values run as follows: HSV replic up	HSV replic up primary fold	PKD1 kinase inh	RGS16-Gao HTS	GALR2 agonist	INS promoter inh	INS promoter inh cell count
COCc1[nH][nH]c(=O)c1C=Nc1ccc(Cl)cc1
  i	1	0	97	-1.1	-3	79
O=C(N/N=C/c1ccc(Br)o1)c1cncc(Br)c1
  i	0.72	-3	90	0.2	25	104
CCOC(=O)CCc1c(C)c2ccc(OCC(=O)N(CC)CC)c(C)c2oc1=O
  i	0.83	-7	102	-1.8	0	49
CC(C)(C)C(=O)Cn1c(=O)n(CC2CCCO2)c(=O)c2ccccc21 (configuration not stated)
  i	1	2	117	-0.9	-17	105

(next part)
SMILES,HSV replic up,HSV replic up primary fold,PKD1 kinase inh,RGS16-Gao HTS,GALR2 agonist,INS promoter inh,INS promoter inh cell count
O=C(COC(=O)c1cc(=O)[nH]c2ccccc12)c1ccc(Br)cc1,i,1.1,/,96,/,/,/
Cc1ccc(C)c(C(=O)N(Cc2nc(-c3ccc(Cl)cc3)no2)C(C)C)c1,i,0.95,-14,102,-3.8,/,/
COc1ccc(/C=C/c2nnc(NC(=O)CSc3ccc(Cl)cc3)s2)cc1,i,0.9,1,106,-1.6,/,/
CCOc1ccccc1NC(=O)CC1Nc2ccccc2NC1=O (configuration not stated),i,1.1,-9,97,0.7,44,111
Cc1cc(CNC(=O)C(C)Cc2ccccc2)nn1C (configuration not stated),i,1,-9,92,-1.4,14,93
Cc1[nH]c(=O)[nH]c(=O)c1/C=N/NC(=O)CCCCCNC(=O)OC(C)(C)C,i,0.88,/,89,/,/,/
CC1(C)CC(=O)c2c(S(C)(=O)=O)sc(Br)c2C1,i,1,/,104,/,/,/
CC(C(=O)Nc1cccnc1)c1ccc([N+](=O)[O-])cc1 (configuration not stated),i,1,3,99,/,/,/
COc1ccc2c(c1OC)C(=O)N1c3ccccc3C(=O)N(c3ccccc3)C21 (configuration not stated),i,0.83,2,94,-0.7,-89,82
CC#CC(=O)N1CCC(CO)(CCc2ccccc2)CC1,i,0.94,-4,105,/,/,/
CSCCOC(=O)COc1ccc(/C=N/NC(=O)c2c(Cl)cnn2C)cc1,i,0.89,/,118,/,/,/
COCCN(C(=O)CC1C(=O)NCCN1CC(c1ccccc1)c1ccccc1)C(C)C (configuration not stated),i,0.97,-10,111,/,-35,111
CC1(C)Cc2c(c(N3CCOCC3)nc3sc(C#N)c(N)c23)CS1,i,0.9,5,103,0.8,-3,135
COc1ccc(N=Nc2c(N)n[nH]c2N)cc1,i,0.88,/,94,/,/,/
C=CCOC(=O)c1cc(-c2ccc(/C=C3\C(=O)NC(=O)C(C#N)=C3C)o2)ccc1Cl,/,/,4,81,-1.0,13,103
O=C(CC(c1ccccc1)c1ccccc1O)NCc1ccccc1Cl (configuration not stated),i,0.95,2,92,-0.4,19,126
CCOC(=O)/C=C/C(=O)OCC(=O)Nc1c(Cl)cccc1Cl,i,0.8,-3,98,/,/,/
CCC(C)NC(=O)c1ccccc1NS(=O)(=O)c1ccc(OC)c(OC)c1 (configuration not stated),i,0.88,-11,99,-2.2,-66,94
CCOC(=O)N1CCN(C(=O)CN(c2ccc(C)c(C)c2)S(=O)(=O)c2ccccc2)CC1,i,0.88,5,93,-0.5,/,/
Nc1nc(=S)n(-c2ccccc2)[nH]1,i,0.89,-2,96,/,20,75
O=C(CN1C(=O)C2C3C=CC(C3)C2C1=O)Nc1ccc(C(=O)O)cc1 (configuration not stated),i,1,-2,100,-0.7,-7,146
O=C(Nc1ccc2c(c1)C(=O)N(c1ccccc1)C2=O)C1CCCO1 (configuration not stated),i,0.8,-2,102,-2.7,-81,150
O=C(CNCC1CCCO1)NCc1ccco1 (configuration not stated),i,1,2,102,/,/,/
COc1cc(-c2nnc(SCC(=O)N3CCCC3)o2)cc(OC)c1OC,i,0.89,5,105,-2.4,-58,70
CC(C)(C)C(=O)NCCCc1ccccc1,i,0.95,-2,98,-1.2,3,274
CN(C)C(/C=C/Nc1cccc(Br)c1)=C(C#N)C#N,i,1.1,4,98,/,/,/
COc1ccc2[nH]c3c(=O)n(N)c(C)nc3c2c1,i,0.95,1,99,-1.7,81*,189*
CCOC(=O)c1sc(NC(=O)C(C)(C)C)cc1C,i,1,17,106,-2.1,/,/
CSc1nnc(-c2ccc(S(=O)(=O)N3CCOCC3)cc2)n1CC1CCCO1 (configuration not stated),i,0.88,1,101,-3.6,50,109
Cc1cccc2nc(-c3ccccc3)nc(N[C@@H](CO)c3ccccc3)c12,i,0.92,-8,88,-0.3,-55,93

SMILES,HSV replic up,HSV replic up primary fold,PKD1 kinase inh,RGS16-Gao HTS,GALR2 agonist,INS promoter inh,INS promoter inh cell count
CN1CCN(C(=O)C2=C[C@H](c3ccc(C(F)(F)F)cc3)C[C@H](OCc3ccc(CO)cc3)O2)CC1,i,0.93,5,99,/,/,/
COc1ccc(OC)c(N(CC(=O)N2CCC(C)CC2)S(=O)(=O)c2ccc(OC)c(OC)c2)c1,i,0.72,-8,105,-0.5,-5,120
Cn1c(=O)c2c(nc(NC(Cc3ccccc3)C(=O)O)n2Cc2ccccc2)n(C)c1=O (configuration not stated),i,1,-2,100,-2.6,/,/
O=C(NNC(=O)c1sc2cccc(Cl)c2c1Cl)NC1CCCCC1,i,0.72,1,103,-2.0,/,/
Cc1ccc(NC(=O)c2ccc3c(c2)OCCO3)cc1S(=O)(=O)Nc1cccc(Cl)c1,i,1,4,104,-0.6,/,/
CC(C)c1ccc(OCC(=O)Nc2cccc(C(=O)Nc3ccccc3C(=O)O)c2)cc1,i,0.97,1,103,/,-12,44
CCOC(=O)c1c(C)n(C)c2ccc(OCC(O)CNC(CC)CO)cc12 (configuration not stated),i,0.99,0,96,-0.3,-5,117
Cc1ccccc1N(Cc1nnc2n1CCCCC2)C(=O)Nc1ccccc1,i,0.78,-11,102,-0.5,13,112
CCNc1ccc(C(=O)OCC(=O)NC(C)c2ccccc2)cc1[N+](=O)[O-] (configuration not stated),i,1,-7,97,-1.2,30,127
Cn1c(SCC(=O)N2CCCC2=O)nc2ccccc21,i,0.94,-7,9.5*,/,/,/
COc1c2c(c(C)c3c1C(=O)OC3)O[C@@]1(C)CC[C@@]3(O)C(C)(C)OC(=O)CC[C@]3(C)[C@H]1C2,i,0.98,/,69,/,/,/
CCOC(=O)/C=c1\s/c(=C\c2ccc(C#N)cc2)c(=O)n1CC(=O)NCc1ccco1,i,0.85,-4,105,1.2,33,91
CSc1nnc(-c2ccco2)c(-c2ccco2)n1,i,1,-40,95,-0.9,27,114
Cc1ccc(-c2cc3nc4c(c(=O)n3[nH]2)CCCC4)cc1,i,0.7,2,/,-1.5,-17,196
COc1ccc(S(N)(=O)=O)cc1C(=O)NCCCN1CCN(c2ccc(C)cc2)CC1,i,0.99,0,103,-0.8,42,125
Cc1cc(NS(=O)(=O)c2ccc(NC(=O)COc3ccccc3Cl)cc2)no1,i,0.93,-10,99,-4.9,-27,200
Cn1c(=O)c2c(nc(NCCCO)n2CCc2ccccc2)n(C)c1=O,i,0.93,7,105,-0.7,9,106
Cc1ccc(C(=O)N2CCN(S(=O)(=O)c3ccc(C)c([N+](=O)[O-])c3)C2)cc1,i,0.98,5,102,/,/,/
CCc1nc2c(nnn2Cc2ccc(F)cc2)c(=O)[nH]1,i,0.86,0,102,-1.2,31,155
NNc1nc2c(F)cc(F)cc2s1,i,0.89,4,105,0.3,41,108
O=C(Cn1cnc2c(nnn2Cc2ccc(F)cc2)c1=O)Nc1ccccc1,i,0.89,/,96,/,/,/
Cc1ccc(NC(=O)COC(=O)c2ccccc2-c2nc3ccccc3s2)c(C)c1,i,0.95,-4,104,-1.6,19,122
O=S1(=O)[C@H]2C[C@@H]3CC[C@]2(CN1Cc1cccc(F)c1)O3,i,1.3,/,101,/,/,/

Four of the entries above in order of the RGS16-Gao HTS value, high to low:
smiles	HSV replic up primary fold	PKD1 kinase inh	RGS16-Gao HTS	GALR2 agonist
CCC(C)NC(=O)c1ccccc1NS(=O)(=O)c1ccc(OC)c(OC)c1 (configuration not stated)	0.88	-11	99	-2.2
O=C(Cn1cnc2c(nnn2Cc2ccc(F)cc2)c1=O)Nc1ccccc1	0.89	/	96	/
COC(C(=O)Nc1cc([N+](=O)[O-])ccc1C)c1ccccc1 (configuration not stated)	0.93	-3	95	/
Cc1[nH]c(=O)[nH]c(=O)c1/C=N/NC(=O)CCCCCNC(=O)OC(C)(C)C	0.88	/	89	/
